Screening data deposited in PubChem BioAssay by National Center for Advancing Translational Sciences (NCATS).
Resorufin fluor – resorufin region autofluorescence; Compound fluorescence, resorufin region 547/598 nm, buffer; stronger effect = higher value; max dye-equivalent concentration, M; 0.04% of 59,000 active; active = above 10 nM dye equivalent; inconclusive = 1 to 10 nM; inactive = 1 nM or less; a few of its hits are not listed in these tables; also: highest value over a series up to 38 µM
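Intrinsic fluorescence profiled in the resorufin window (ex 547 nm, em 598 nm) after 15 min at room temperature in pH 8.0 Tris buffer (100 mM); responses normalized against a six-point resorufin standard series as dye-equivalent concentration.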
TSHR ag – TSH receptor (human) agonism. Potency, µM (series often up to 57.1 µM), for inactives: at the highest dose activation, most hits filed as activators. 0.48% of 73,000 active. HEK293-CNG-TSHR cells (CNG channel as cAMP sensor), membrane potential dye, cAMP. P16473; active = well fitted activation curve of enough size with the parental cells flat; inconclusive = any curve in the parental cells; inactive = parental cells flat and receptor cells flat or falling; also: potency is read from the fitted curve at half-maximal effect; % of control where 0% means no effect; weak receptor curves with flat parental cells got no call and are not listed
Target sequence (P16473 whole entry, looked up): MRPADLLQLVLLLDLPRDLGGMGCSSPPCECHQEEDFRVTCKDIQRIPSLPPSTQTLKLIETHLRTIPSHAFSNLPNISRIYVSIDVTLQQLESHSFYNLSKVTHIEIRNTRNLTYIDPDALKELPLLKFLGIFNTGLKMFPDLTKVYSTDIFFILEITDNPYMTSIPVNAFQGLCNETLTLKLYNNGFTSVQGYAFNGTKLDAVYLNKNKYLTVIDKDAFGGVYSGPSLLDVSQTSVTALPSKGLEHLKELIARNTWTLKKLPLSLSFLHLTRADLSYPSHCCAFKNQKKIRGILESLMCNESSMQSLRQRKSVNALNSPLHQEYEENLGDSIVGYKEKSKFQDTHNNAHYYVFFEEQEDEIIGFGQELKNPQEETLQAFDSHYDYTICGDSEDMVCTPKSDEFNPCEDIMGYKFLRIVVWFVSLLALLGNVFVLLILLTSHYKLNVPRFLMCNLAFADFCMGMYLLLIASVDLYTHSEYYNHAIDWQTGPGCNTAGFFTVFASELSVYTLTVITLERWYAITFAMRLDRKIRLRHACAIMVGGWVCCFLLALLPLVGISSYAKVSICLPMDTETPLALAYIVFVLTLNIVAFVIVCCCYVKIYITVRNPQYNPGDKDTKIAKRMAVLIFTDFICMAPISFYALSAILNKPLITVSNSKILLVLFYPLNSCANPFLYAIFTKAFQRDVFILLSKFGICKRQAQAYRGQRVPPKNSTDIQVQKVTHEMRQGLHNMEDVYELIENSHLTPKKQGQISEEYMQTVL
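HEK 293 cells stably expressing TSHR and a modified CNG channel, with CNG-only parental cells as counterscreen, were preloaded 60 min at room temperature with membrane potential dye containing 100 uM RO 20-1724. Compound exposure was 30 min, and depolarization was read as fluorescence at 590 nm.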
AID923 – qHTS Assay for Allosteric/Competitive Inhibitors of Caspase-1: Spectroscopic Profiling in AFC Spectral Region; Potency, µM (doses to about 57.5 µM), for inactives: at the highest dose fluorescence increase, usual class: activators; 1.1% of 75,000 active; AID 923, 2007; compound fluorescence, AFC spectral region (405/520 nm); almost no hit is shown here; active = well fitted activation curve with a large enough effect; inconclusive = small, poorly fitted or top-dose-only effect;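 also: potency is read from the fitted curve at half-maximal effect; 0% is about no effect; scaled to a free AFC standard on each plate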
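Compound autofluorescence profiled at 405 nm ex/520 nm em during kinetic caspase 1 run (50 nM enzyme, 5 uM Ac-WEHD-AFC, HEPES pH 7.5, 10 mM DTT). Titration up to 57 uM; baseline from regression intercept, normalized to AFC standard curve.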
A647 fluor – compound autofluorescence in A647 spectral region | 59,000 tested, under 10 active | AID 592 | Compound fluorescence, A647 channel (570/671 nm), Tris buffer | max dye-equivalent concentration, M; active means above 1 µM dye equivalent; inconclusive means 0.1 to 1 µM; inactive means 0.1 µM or less;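 also: values scaled relative to a standard on each plate; highest value over a series up to 38 µM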
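Each compound's intrinsic fluorescence at 570 nm excitation and 671 nm emission is measured across its concentration series in 100 mM Tris, pH 8.0, after 15 min at room temperature, and reported relative to an A647 curve.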
A488 autofl – compound fluoresces in the A488 spectral region. compound autofluorescence, A488 spectral region, dye equivalency; stronger effect = higher value. max dye equivalency, M. 0.1% of 59,000 active; active = above 10 nM dye equivalent; inconclusive = 1 to 10 nM; inactive = 1 nM or less; about half of its hits are not listed in these tables;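 also: highest value over a series up to 38 µM; compound alone in buffer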
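Compound autofluorescence was read in 100 mM Tris pH 8.0 after 15 min at room temperature, ex 480 nm/em 540 nm. Intensities were converted to A488 dye-equivalent concentration using an on-plate six-point A488 standard curve.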
* marks the source's active call; other numbers are inactive results; i = inactive; ? = inconclusive; nt = not tested or not shown; & = joins results of further samples; [ ] = another dose, or the depositor's remark. This is a subset, so the mix of outcomes need not match the whole.

Results follow in this order: Resorufin fluor	TSHR ag	AID923	A647 fluor	A488 autofl
> CCCC(C)C(=O)NCc1ccccc1OC (configuration not stated)
→ nt	?	0.8%	nt	nt
> CCOC(=O)CSc1nc(C)cc(Oc2ccc(=O)n(C)n2)n1
→ nt	0%	-1.7%	nt	nt
> O=C(Nc1ccc(Oc2ccccc2)cc1)C1CCN(c2ncccn2)CC1
→ i	-3%	0.7%	1e-09	i
> O=C(CN1C(=O)NC(Cc2ccccc2)C1=O)Nc1ccc(F)cc1 (configuration not stated)
→ i	-1%	0.7%	5.4e-08	i
> Cn1nnnc1Sc1ncnc2scc(-c3ccc(F)cc3)c12
→ i	25%	-1.1%	2.6e-08	i
> CCN(CC)CCN(Cc1cc2cc3c(cc2[nH]c1=O)OCCO3)C(=O)NC1CCCCC1
→ i	11%	9.1%	1.4e-09	i
> COc1cc2[nH]c(=S)n(CCN3CCOCC3)c(=O)c2cc1OC
→ i	4%	-1.5%	1.8e-08	i
> Cc1ccc(NCC(O)C(O)C(O)CO)cc1C (configuration not stated)
→ i	-1%	-2.5%	1.3e-08	i
> O=C(Cn1cccc1)NCc1cccs1
→ i	-1%[11.4 µM]	3.6%	3.9e-08	i
> Cc1nnc(SCCn2c(N3CCN(C)CC3)nc3c2c(=O)[nH]c(=O)n3C)s1
→ i	2%	-0.3%	1.2e-08	i
> c1ccc(-c2cc3c(N4CCOCC4)ncnc3s2)cc1
→ nt	21%	3.1%	nt	nt
> CCOc1ccccc1N1CCN(Cc2cccc(OC)c2O)CC1
→ i	?	1.3%	1e-09	i
> CCN(CC)c1ccc(NC(=O)c2ccco2)c(C)c1
→ i	-4%	1.9%	1e-09	i
> CCC(c1nnnn1Cc1ccco1)N1CCN(C(=O)c2ccco2)CC1 (configuration not stated)
→ i	0%	-0.2%	1e-09	i
> CCc1nc2c(n1O)CCc1nonc1-2
→ i	3%	5.5%	3.7e-09	i
> Cc1ccc(-c2cc(C(=O)Nc3c(C#N)cnn3C)no2)cc1
→ i	0%	-2.2%	1e-09	i
> COc1ccccc1N(CN1CCCC1=O)C(=O)c1c(F)cccc1Cl
→ i	1%	-0.7%	4.8e-08	i
> Cc1ccc(-c2nn(C)c(=O)c3ccccc23)cc1CNC(=O)CN1CCOCC1
→ i	22%	-2.0%	4.6e-08	i
> COc1ccccc1-c1coc2c(CN3CCN(C)CC3)c(O)ccc2c1=O
→ nt	5%	1.7%	nt	nt
> COc1ccc(C2C(C(=O)NCc3ccccn3)c3cc(OC)c(OC)cc3C(=O)N2C)cc1 (configuration not stated)
→ i	0%	0.8%	2.6e-08	i
> O=C(Nc1cnc2sccn2c1=O)c1ccccc1Cl
→ i	?	0.5%	1e-09	i
> O=S(=O)(CCc1nc2ccccc2o1)c1ccc(Cl)cc1
→ i	11%	-1.1%	8.2e-09	i
> CCc1c(C)nc2ncnn2c1N1CCC(C(=O)NCc2cccc(OC)c2)CC1
→ i	2%	-0.8%	7e-08	i
> O=C(c1ccccc1)N1CCCCC(Sc2nnc3ccccn23)C1=O (configuration not stated)
→ i	-1%	0.1%	2e-08	i
> Cn1nnnc1SCC(=O)NCCc1ccc(Cl)cc1
→ i	-1%	0.0%	1.7e-09	i
> COC(=O)c1ccc(C(NC(=O)OCc2ccccc2)/C(F)=C/[C@@H](C)C(=O)NCc2cc(F)cc(F)c2)cc1 (some centres not stated)
→ nt	15%	0.7%	nt	nt
> O=C(CCCN1C(=O)c2ccccc2C1=O)N1CCC(c2ccccc2)C1 (configuration not stated)
→ i	nt	nt	3.5e-08	i
> COc1ccc(C2N=C(Nc3ccc(C)cc3)Nc3nc(C)cc(=O)n32)cc1 (configuration not stated)
→ i	17%	0.2%	1e-09	i
> CCOC(=O)Cn1c2c(c(=N)c3ccccc31)CCC2
→ i	7%	-3.1%	1e-09	i
> CCC(=O)Nc1ccc(Oc2ccc3c(c2)C(=O)NC3=O)cc1
→ i	nt	-0.5%	4.3e-08	i
> CN(C)c1nc(Nc2ccc(Cl)cc2)nc(OCC#N)n1
→ i	8%	0.6%	3.9e-08	i
> C=C(C)CSC1=C(C#N)C(c2ccsc2)CC(=O)N1 (configuration not stated)
→ i	nt	nt	9e-08	i
> O=C1CC(c2ccco2)Cc2nc(Nc3nc(-c4ccccc4)c4ccccc4n3)ncc21 (configuration not stated)
→ i	?	-0.7%	3.8e-08	i
> CC(C)CC(OC(=O)c1ccco1)C(=O)NC1CCCCC1 (configuration not stated)
→ i	?	-0.1%	2.2e-08	i
> c1ccc2c(c1)[nH]c1c(N3CCOCC3)ncnc12
→ nt	10%	1.3%	nt	nt
> COC(=O)c1cc(NC(=O)C2CC=CCC2C(=O)O)cc(C(=O)OC)c1 (configuration not stated)
→ i	-2%	0.8%	7.6e-09	i
> CN(C)c1cccc(C(=O)OCC(=O)NCc2ccco2)c1
→ i	0%	0.0%	1.2e-08	i
> CN1CCC(OC(=O)COc2ccc(C(C)(C)C)cc2)CC1
→ i	11%	1.1%	1e-09	?
> COC(=O)c1ccc(CNC(=O)CSc2nc3sc(C)c(C)c3c(=O)n2C)o1
→ i	nt	-0.5%	1e-08	i
> COc1cc(OC)cc(-c2nc3cc(C)ccc3o2)c1
→ i	7%	-0.1%	1e-09	i
> Cc1nc2ccccc2c2nc3ccccc3n12
→ nt	-21%	2.2%	nt	nt
> O=C(Nc1ccc(F)cc1)N1CCN(C/C=C/c2ccccc2)CC1
→ i	-1%	-1.7%	1.7e-08	i
> COC(=O)C1CCN(C(=O)c2sc3nc(-c4ccccc4)cn3c2C)CC1
→ i	8%	0.2%	3.7e-09	i
> CN(C)CN1CSC(=S)N(CN(C)C)C1
→ i	-5%[11.4 µM]	4.6%[11.5 µM]	4.3e-09	i
> Cc1cnc(NC(=O)C2CCCO2)s1 (configuration not stated)
→ i	6%	1.8%	1e-08	i
> Cc1cccc(C(=O)O)c1NC(=O)c1ccc(F)cc1
→ i	21%	-2.8%	2.9e-08	i
> Nc1ccc2c(c1)CCC2=O
→ i	8%[11.4 µM]	19%	1e-09	i
> CCOC(=O)C1=C(N)N2C(=O)C(C)SC2=C(C(=O)OCC)C1c1ccccc1 (configuration not stated)
→ i	?	-0.8%	1.6e-08	i
> Nc1nnc(CSCc2ccc(F)cc2)s1
→ i	nt	nt	1e-09	i
> CCc1ccccc1NC1=NCC(=O)N1Cc1ccccc1
→ i	nt	-0.5%	2.7e-08	i
> O=C(COC(=O)c1cccs1)NCCN1C(=O)CSC1=O
→ i	4%	0.4%	1e-09	i
> COc1ccccc1N1CCN(C(=O)C2CCN(S(=O)(=O)c3ccccc3)CC2)CC1
→ nt	-3%	-1.3%	nt	nt
> N#Cc1c2n(c3c(=O)n(Cc4ccc(Cl)cc4)cnc13)CCCCC2
→ nt	6%	2.1%	nt	nt
> O=C(OCCNc1ncc(C(F)(F)F)cc1Cl)c1ccc(S(=O)(=O)N2CCOCC2)cc1
→ i	20%	-0.8%	2.9e-08	i
> CCOc1ccccc1NC(=O)CN(c1cc(C)cc(C)c1)S(=O)(=O)c1c(C)noc1C
→ nt	2%	1.9%	nt	nt
> CC(=O)OC[C@H]1O[C@@H](n2ccc(=O)[nH]c2=S)C(OC(C)=O)C1OC(C)=O (some centres not stated)
→ i	3%	1.4%	1e-09	i
> CS(=O)(=O)N1CCN(c2ccccc2NC(=O)CSc2ccc(Cl)cc2)CC1
→ i	15%	0.4%	3.3e-08	i
> Cc1ccc(S(=O)(=O)N2CCN(C(=O)C3COc4ccccc4O3)CC2)cc1C (configuration not stated)
→ i	2%	-0.4%	7.4e-09	i
> O=C(c1ccc(Br)o1)N1CCN(Cc2ccc3c(c2)OCO3)CC1
→ i	8%	-1.0%	2.5e-08	i
> COc1ccc(S(=O)(=O)NCC(c2cccnc2)N2CCN(C)CC2)cc1C (configuration not stated)
→ nt	0%	-0.9%	nt	nt

Next records:
Results follow in this order: Resorufin fluor	TSHR ag	AID923	A647 fluor	A488 autofl
> CC(C(=O)Nc1cccnc1)N1C(=O)c2ccccc2C1=O (configuration not stated)
→ i	-1%	-1.1%	2.4e-08	i
> CCc1nnc2c3cnn(-c4ccc(C)c(C)c4)c3ncn12
→ i	8%	-0.7%	1.8e-08	i
> COCCn1cc(C(=O)NCCCN2CCC(C)CC2)c2c3ccccc3n(C)c2c1=O
→ i	-2%	0.8%	1e-09	i
> NCCCCCc1nnc(SCc2cccc(Cl)c2)o1
→ i	1%	2.9%	3.2e-09	i
> CC12C=C(/C=C/c3ccc(Br)cc3)C(C)(C1)C(c1ccc(Br)cc1)CC2=O (configuration not stated)
→ nt	21%[11.4 µM]	-1.6%[11.5 µM]	nt	nt
> O=C(NCc1ccco1)Nc1ccccc1Cl
→ i	?	-1.0%	4.9e-08	i
> C[C@@H](CN1c2ccccc2Sc2ccccc21)N(C)C
→ i	-1%[25.6 µM]	-4.0%[25.7 µM]	1.8e-08&3.5e-08	i
> CCOC(=O)c1c(-c2cccs2)csc1NC(=O)CN1CC(C)OC(C)C1 (configuration not stated)
→ i	27%	-1.0%	1.3e-08	i
> C/C=C/c1ccc(OCCSc2nc(C)cc(=O)[nH]2)c(OC)c1
→ i	16%	-1.9%	1e-09	i
> NC(=O)CSc1cn(CCNC(=O)c2cccs2)c2ccccc12
→ nt	32µM*	-2.0%	nt	nt
> CN(C)c1ccc(CNn2cnnc2SCc2ccc(F)cc2)cc1
→ i	3%	-0.3%	3.7e-08	i
> CN(C)C(=O)c1ccc(-c2nccc(N(C)Cc3ccco3)n2)cc1
→ i	15%	0.2%	1.1e-08	i
> COc1cc(OC)cc(-c2nc3nc(C)c(CCC(=O)O)c(C)n3n2)c1
→ i	1%	0.5%	1.4e-08	i
> CCCCN(C)CCCNC(=O)CS(=O)Cc1nc(-c2ccc(OC)c(OC)c2)oc1C (configuration not stated)
→ i	?	-1.2%	7.3e-09	i
> COc1cc(C(=O)Nc2ccc(O)cc2C(=O)O)ccc1OC(C)=O
→ i	nt	nt	2.4e-08	i
> O=C(CCc1ccccc1)Nc1cc(Cl)ccc1O
→ nt	-6%	0.6%	nt	nt
> CCc1ccccc1NC(=O)c1cnc2n(c1=O)CCS2
→ nt	-9%	2.9%	nt	nt
> Cn1cc(CN2CCN(c3ccccc3)CC2)c2ccccc21
→ i	nt	-1.2%	1e-09	i
> CCOC(=O)c1c(CN2CCN(C)CC2)n(C)c2cc(Br)c(OC)cc12
→ i	nt	nt	4.6e-09	i
> Cc1ccc(N2C(=O)c3ccccc3C2O)nc1 (configuration not stated)
→ nt	-8%	0.9%	nt	nt
> O=C(O)[C@@H]1CCCN[C@H]1C(=O)O
→ i	4%	-1.0%	1e-09	i
> O=C(O)CCC(=O)N(Cc1cccnc1)Cc1cccc(F)c1
→ i	0%	-0.6%	2.3e-08	i
> COC(=O)[C@@]1(Cc2ccc(F)cc2)[C@H]2c3cc(C(=O)N(C)C)n(CCSCCO)c3C[C@H]2CN1C(=O)c1ccccc1
→ nt	12%	-1.8%	nt	nt
> COCCn1c(=O)c(-c2ccccc2)nc2cncnc21
→ i	6%	3.5%	9.9e-09	i
> Cc1oc2nc(SCCCC(=O)NCCCO)nc(N)c2c1C
→ i	nt	nt	1.8e-08	i
> CCc1cc(Br)ccc1N1C(=O)C2CC=CCC2C1=O (configuration not stated)
→ nt	2.5µM*	-0.6%	nt	nt
> CC(=O)OC[C@@H]1O[C@H](CCO/N=C(\C)CCN2CCCCc3nc(C)c(C)cc32)C=C[C@@H]1OC(C)=O
→ nt	10%[11.4 µM]	5.1%[11.5 µM]	nt	nt
> c1ccc(Sc2nc(N3CCCCC3)nc(N3CCCCC3)n2)nc1
→ nt	?	0.2%	nt	nt
> O=C(Cn1[nH]c(=O)c2ccccc2c1=O)Nc1ccc2c(c1)CCC2
→ i	18%	-1.4%	4.7e-09	i
